# UUG fidelity: modulators of yeast start codon fidelity, primary screen, whole organism, S. cerevisiae, single point, plate reader | S. cerevisiae UUG-firefly luciferase reporter, luminescence/redox ratio | activity score, % at 18.7 µM | actives 0.13% (n = 350,000) | AID 602363, 2012;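 active = replicate mean at a twofold rise or more, about +100% in these data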;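 also: firefly luciferase made from a UUG start codon reports start codon fidelity; reporter light over untreated wells divided by growth signal over untreated wells; some hits fall short of that in this replicate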
# HIV Env fusion: inhibitors of HIV-1 Env-driven cell-cell fusion, primary screen, HeLa-JRFL effector, CEM21 target cells, luciferase; inhibition, % at 12.3 µM; AID 651610, 2012; actives 1.1% (n = 360,000);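 active = mean replicate inhibition score of at least 50 and every replicate individually at or above 50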;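 also: 0% = plate neutral controls and 100% = maraviroc near 300 nM; one replicate is shown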
# * = called active by the depositor; & = joins results of further samples; [ ] = remark or other dose. This is a subset; count on the stated rates, not on these rows.
SMILES,UUG fidelity,HIV Env fusion
COc1ccc(NC(=O)N(C)C[C@@H]2OCCCC[C@@H](C)Oc3ccc(NC(=O)CCC(F)(F)F)cc3C(=O)N([C@H](C)CO)C[C@@H]2C)cc1,14.5,5.6[16.7 µM]
C[C@H](CO)N1C[C@H](C)[C@H](CN(C)S(=O)(=O)c2cn(C)cn2)Oc2ccc(NS(=O)(=O)c3ccc(Cl)cc3)cc2CC1=O,6.2,-20.1[16.7 µM]
C[C@@H]1CN([C@@H](C)CO)C(=O)c2cccc(NC(=O)c3nc4ccccc4s3)c2O[C@@H]1CN(C)Cc1ccc(C(=O)O)cc1,-3.3,23.8[16.7 µM]
C[C@@H]1CN([C@H](C)CO)S(=O)(=O)c2ccc(/C=C/c3ccccc3)cc2O[C@H]1CN(C)Cc1cncnc1,-6.3,32.1[16.7 µM]
CC(=O)N(C)C[C@H]1Oc2cc(-c3cncnc3)ccc2S(=O)(=O)N([C@H](C)CO)C[C@H]1C,-14.9,17.2[16.7 µM]
C[C@@H]1CN([C@H](C)CO)S(=O)(=O)c2ccc(-c3ccc(F)cc3)cc2O[C@@H]1CN(C)C(=O)c1ccccc1F,15.6,5.4[16.7 µM]
C[C@@H]1CN([C@H](C)CO)C(=O)c2cc(-c3cccc(C#N)c3)cnc2O[C@@H]1CN(C)C(=O)C1CCCCC1,9.9,9.6[16.7 µM]
COC(=O)C[C@H]1CC[C@H](NS(=O)(=O)c2ccc(OC)cc2)[C@H](CO)O1,-3.9,-30.6[16.7 µM]
Cc1noc(C)c1S(=O)(=O)Nc1ccc2c(c1)C(=O)N([C@H](C)CO)C[C@H](C)[C@@H](CN(C)Cc1ccc3c(c1)OCO3)OCCCC[C@@H](C)O2,9.6,10.8[16.7 µM]
C[C@H](CO)N1C[C@H](C)[C@H](CN(C)Cc2ccc(C(F)(F)F)cc2)OCCCC[C@H](C)Oc2ccc(NC(=O)CCCN(C)C)cc2C1=O,0.9,3.3[16.7 µM]
CN1C(=O)c2cc(NC(=O)c3ccc(F)cc3)ccc2OC[C@@H]2O[C@H](CC(=O)NC3CCC3)CC[C@@H]21,23.3,1.3[16.7 µM]
CCCN(C)C[C@H]1OCCCC[C@H](C)Oc2ccc(NS(=O)(=O)c3ccc(F)cc3)cc2C(=O)N([C@@H](C)CO)C[C@@H]1C,0.3,-13.6[16.7 µM]
COc1ccc(NC(=O)N(C)C[C@H]2OCCCC[C@H](C)Oc3ccc(NS(=O)(=O)c4cn(C)cn4)cc3C(=O)N([C@@H](C)CO)C[C@H]2C)cc1,-31.1,5.4[16.7 µM]
CNC[C@H]1Oc2c(cccc2N(C)C)C(=O)N([C@H](C)CO)C[C@@H]1C,-14.4,-2.5[16.7 µM]
COc1ccc(NC(=O)Nc2cccc3c2O[C@H](CN(C)C(=O)Nc2ccc(OC)cc2)[C@@H](C)CN([C@@H](C)CO)C3=O)cc1,15.1,-26.4[16.7 µM]
C[C@@H]1CCCCO[C@@H](CN(C)S(=O)(=O)c2cn(C)cn2)[C@H](C)CN([C@H](C)CO)C(=O)c2cc(NS(=O)(=O)c3ccc(Cl)cc3)ccc2O1,-0.9,-7.1[16.7 µM]
Cc1ccc(S(=O)(=O)N(C)C[C@H]2OCCCC[C@@H](C)Oc3ccc(NC(=O)CCC(F)(F)F)cc3C(=O)N([C@@H](C)CO)C[C@@H]2C)cc1,11.4,-33.6[16.7 µM]
CNC[C@@H]1Oc2ccc(NC(=O)Nc3ccc4c(c3)OCO4)cc2CC(=O)N([C@H](C)CO)C[C@@H]1C,-5.5,17.4[16.7 µM]
C[C@@H]1CN([C@H](C)CO)S(=O)(=O)c2ccc(/C=C/c3ccccc3)cc2O[C@@H]1CN(C)C(=O)c1cccnc1,10.6,25.9[16.7 µM]
CC(C)OC(=O)N(C)C[C@H]1OCc2cn(nn2)CCCC(=O)N([C@@H](C)CO)C[C@@H]1C,0.7&-5.1,-17.6[16.7 µM]
C[C@H](CO)N1C[C@H](C)[C@@H](CN(C)S(=O)(=O)c2ccc(Cl)cc2)Oc2c(NS(=O)(=O)c3cccs3)cccc2C1=O,-0.8,-20.6[16.7 µM]
CN(C)CC(=O)Nc1ccc2c(c1)[C@@H]1C[C@H](CC(=O)NCCN3CCCCC3)O[C@H](CO)[C@@H]1O2,-16.7,-11.7[16.7 µM]
C[C@@H]1CN([C@@H](C)CO)S(=O)(=O)c2ccc(C#Cc3ccccc3F)cc2O[C@H]1CN(C)C(=O)c1ccc2c(c1)OCO2,-6.0,48.7[16.7 µM]
COCC(=O)Nc1ccc2c(c1)OC[C@@H](C)N(C(=O)c1ccncc1)C[C@H](C)[C@H](OC)CN(C)C2=O,-0.6,-0.7[16.7 µM]
O=C(C[C@H]1C=C[C@H](NC(=O)c2ccc(F)cc2)[C@H](CO)O1)NCc1ccncn1,8.5,-25.3[16.7 µM]

# Going on with the list:
SMILES,UUG fidelity,HIV Env fusion
COc1ccc(CN(C)C[C@@H]2Oc3ccc(NC(=O)Nc4ccc(C(F)(F)F)cc4)cc3CC(=O)N([C@@H](C)CO)C[C@@H]2C)cc1,3.4,3.8[16.7 µM]
CC(C)NC(=O)N(C)C[C@H]1Oc2ccc(NC(=O)c3ccncc3)cc2C(=O)N([C@@H](C)CO)C[C@@H]1C,-16.0,6.4[16.7 µM]
C[C@H]1CN([C@@H](C)CO)C(=O)c2cc(-c3ccccc3F)cnc2O[C@H]1CN(C)Cc1cccc(C(=O)O)c1,0.7,-33.6[16.7 µM]
COc1ccc(NC(=O)Nc2ccc3c(c2)CC(=O)N([C@H](C)CO)C[C@@H](C)[C@@H](CN(C)Cc2ccc(Cl)c(Cl)c2)O3)cc1,3.9,10.1[16.7 µM]
Cc1ccc(S(=O)(=O)Nc2ccc3c(c2)CC(=O)N([C@@H](C)CO)C[C@H](C)[C@H](CN(C)C(=O)Nc2ccc(C(F)(F)F)cc2)O3)cc1,4.2,0.7[16.7 µM]
COc1ccc(S(=O)(=O)Nc2ccc3c(c2)C(=O)N([C@@H](C)CO)C[C@@H](C)[C@H](CN(C)S(=O)(=O)c2ccc(C)cc2)O3)cc1,-11.5,-0.8[16.7 µM]
CO[C@@H]1CN(C)C(=O)c2cc(NC(=O)Cc3ccccc3)ccc2OC[C@@H](C)N(CC2CC2)C[C@@H]1C,-4.1,-12.3[16.7 µM]
CCS(=O)(=O)Nc1ccc2c(c1)C(=O)N(C)[C@@H]1CC[C@H](CC(=O)NC3CCCCC3)O[C@@H]1CO2,12.2,6.9[16.7 µM]
COc1ccc(NC(=O)N[C@@H]2C=C[C@H](CC(=O)NC3CCCCC3)O[C@@H]2CO)cc1,7.0,14.2[16.7 µM]
CO[C@@H]1CN(C)C(=O)c2ccc(NS(=O)(=O)c3cn(C)cn3)cc2OC[C@@H](C)N(C)C[C@@H]1C,-2.9,-9.1[16.7 µM]
O=C(C[C@@H]1C=C[C@@H](NS(=O)(=O)c2cccc(F)c2)[C@H](CO)O1)NCc1ccc2c(c1)OCO2,-0.8,-1.8[16.7 µM]
C[C@H]1CCCCO[C@H](CN(C)Cc2ccncc2)[C@@H](C)CN([C@@H](C)CO)C(=O)c2cc(NC(=O)NC3CCCCC3)ccc2O1,-3.4,-9.5[16.7 µM]
O=C(Nc1ccccc1)N[C@@H]1CC[C@H](CCNS(=O)(=O)c2cccc(F)c2)O[C@H]1CO,-1.7,-5.9[16.7 µM]
O=C(CN1CCOCC1)NCC[C@H]1CC[C@@H](NC(=O)Cc2ccccn2)[C@@H](CO)O1,-23.4,-19.2[16.7 µM]
C[C@H](CO)N1C[C@H](C)[C@@H](CN(C)C(=O)Cc2ccccn2)Oc2ncc(C#C[C@@H](C)O)cc2C1=O,-18.5,5.5[16.7 µM]
C[C@@H]1CN([C@@H](C)CO)C(=O)c2cc(NC(=O)NC3CCCCC3)ccc2O[C@@H](C)CCCCO[C@H]1CN(C)Cc1ccc(Cl)c(Cl)c1,-3.0,25.8[16.7 µM]
CC(=O)N(C)C[C@H]1Oc2cc(Br)ccc2S(=O)(=O)N([C@H](C)CO)C[C@H]1C,2.9,-16.6[16.7 µM]
C[C@@H]1CN([C@H](C)CO)C(=O)c2cc(NC(=O)Nc3ccc(F)cc3)ccc2O[C@@H](C)CCCCO[C@@H]1CN(C)Cc1ccccc1,19.6,-37.1[16.7 µM]
N#C[C@H]1[C@@H](c2ccc(-c3cccnc3)cc2)[C@@H](CO)N1C(=O)C1CC1,19.7,2.1[16.7 µM]
C[C@@H]1CN([C@H](C)CO)C(=O)c2cccc(NS(=O)(=O)c3ccccc3)c2O[C@H]1CN(C)S(=O)(=O)c1ccc(F)cc1,-2.6,7.2[16.7 µM]
C[C@H](CO)N1C[C@H](C)[C@@H](CN(C)CC2CC2)OCCCC[C@H](C)Oc2ccc(NC(=O)Nc3ccc(F)cc3)cc2C1=O,9.4,-5.6[16.7 µM]
C[C@@H]1CN([C@@H](C)CO)C(=O)c2cc(C#CCN(C)C)cnc2O[C@H]1CN(C)Cc1ccc(C(=O)O)cc1,8.8,-7.8[16.7 µM]
C[C@H]1CN([C@@H](C)CO)C(=O)c2cc(-c3ccc(F)cc3)cnc2O[C@@H]1CN(C)Cc1ccc(C(=O)O)cc1,-4.4,-18.4[16.7 µM]
C=CC1C2C(C)=CC(C3C(=O)N(C)C(=O)C32)N1Cc1ccc(OC)cc1 (stereo not given),-0.8,29.2[16.7 µM]
Cc1ccc(S(=O)(=O)Nc2ccc3c(c2)C(=O)N([C@H](C)CO)C[C@@H](C)[C@@H](CN(C)C(=O)Nc2cccc4ccccc24)OCCCC[C@@H](C)O3)cc1,-13.4,25.2[16.7 µM]

# Random excerpt: 5 entries already listed.
SMILES,UUG fidelity,HIV Env fusion
C[C@H](CO)N1C[C@H](C)[C@@H](CN(C)C(=O)Cc2ccccn2)Oc2ncc(C#C[C@@H](C)O)cc2C1=O,-18.5,5.5[16.7 µM]
COc1ccc(NC(=O)Nc2ccc3c(c2)CC(=O)N([C@H](C)CO)C[C@@H](C)[C@@H](CN(C)Cc2ccc(Cl)c(Cl)c2)O3)cc1,3.9,10.1[16.7 µM]
C[C@H]1CN([C@@H](C)CO)C(=O)c2cc(-c3ccccc3F)cnc2O[C@H]1CN(C)Cc1cccc(C(=O)O)c1,0.7,-33.6[16.7 µM]
Cc1ccc(S(=O)(=O)Nc2ccc3c(c2)CC(=O)N([C@@H](C)CO)C[C@H](C)[C@H](CN(C)C(=O)Nc2ccc(C(F)(F)F)cc2)O3)cc1,4.2,0.7[16.7 µM]
CC(=O)N(C)C[C@H]1Oc2cc(Br)ccc2S(=O)(=O)N([C@H](C)CO)C[C@H]1C,2.9,-16.6[16.7 µM]

# Additional compounds
SMILES,UUG fidelity,HIV Env fusion
C[C@H](CO)N1C[C@H](C)[C@H](CN(C)CC2CC2)Oc2ccc(NC(=O)CCC(F)(F)F)cc2C1=O,-10.3,24.6[16.7 µM]
C[C@@H]1CN([C@@H](C)CO)C(=O)c2cc(NS(=O)(=O)c3ccc(Cl)cc3)ccc2O[C@H]1CN(C)C(=O)Nc1cccc2ccccc12,-2.7,-21.8[16.7 µM]
Cc1ccc(-c2ccc3c(c2)O[C@H](CN(C)CC2CC2)[C@H](C)CN([C@H](C)CO)S3(=O)=O)cc1,9.9,8.7[16.7 µM]
O=C(Nc1ccc2c(c1)[C@H]1C[C@H](CC(=O)N3CCOCC3)O[C@@H](CO)[C@H]1O2)NC1CCCCC1,-0.9,16.2[16.7 µM]
CO[C@@H]1CN(C)C(=O)c2ccc(NS(C)(=O)=O)cc2OC[C@H](C)N(Cc2cncnc2)C[C@@H]1C,-6.7,-7.9[16.7 µM]
C[C@H](CO)N1C[C@H](C)[C@H](CN(C)S(=O)(=O)c2ccccc2)OCCCC[C@H](C)Oc2ccc(NC(=O)Cc3ccccc3)cc2C1=O,-3.3,-96.2[16.7 µM]
C[C@@H](NC(=O)C[C@@H]1CC[C@H](NC(=O)C2CCC2)[C@H](CO)O1)c1ccccc1,17.8,-0.3[16.7 µM]
CCCNC(=O)N1C[C@@H](O)COC[C@H]2O[C@@H](CC(=O)NCc3ccc(Cl)c(Cl)c3)CC[C@@H]21,0.8,18.9[16.7 µM]
COc1ccc(S(=O)(=O)N[C@H]2CC[C@@H](CCNC(=O)Cc3ccccn3)O[C@@H]2CO)cc1,8.6,-4.4[16.7 µM]
CO[C@@H]1CN(C)C(=O)c2cc(NC(C)=O)ccc2OC[C@H](C)N(C(=O)c2ccccn2)C[C@@H]1C,-0.8,22.5[16.7 µM]
C[C@H](CO)N1C[C@H](C)[C@H](CN(C)Cc2ccc(C(F)(F)F)cc2)Oc2ccc(NS(C)(=O)=O)cc2CC1=O,-18.7,-7.8[16.7 µM]
C[C@@H]1CCCCO[C@@H](CN(C)C(=O)CCC(F)(F)F)[C@H](C)CN([C@@H](C)CO)C(=O)c2cc(NS(=O)(=O)c3ccc(F)cc3)ccc2O1,11.6,-67.1[16.7 µM]
CC(C)CC#Cc1cnc2c(c1)C(=O)N([C@H](C)CO)C[C@H](C)[C@@H](CN(C)C(=O)NC1CCCC1)O2,13.0,14.4[16.7 µM]
C[C@@H]1CN([C@H](C)CO)C(=O)Cc2cc(NC(=O)Nc3ccc(C(F)(F)F)cc3)ccc2O[C@H]1CN(C)Cc1ccc(Oc2ccccc2)cc1,-6.4,11.9[16.7 µM]
COc1ccccc1-c1cnc2c(c1)C(=O)N([C@@H](C)CO)C[C@@H](C)[C@H](CN(C)Cc1ccccc1)O2,29.7,16.4[16.7 µM]
O=C(N[C@@H]1C=C[C@@H](CC(=O)N2CCOCC2)O[C@@H]1CO)c1ccccn1,-8.6,11.4[16.7 µM]
